rRNA inh HTS – selective bacterial rRNA inhibition in E. coli; E. coli WT GFP vs humanized-ribosome RFP mutants, fluorescence, 24 h; hits give low values; DMSO median 0, no signal -100; GFP signal change (wild-type ribosome), % (test concentration not listed); hit rate 1.6% among 350,000;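 active = significant combined selectivity score with lowered wild-type GFP, culture density cut under 30%, mutant RFP and density less affected; inactive = any of these conditions unmet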; note: one replicate is shown; some compounds called inactive have numbers as strong as hits
Calb FLC – affects C. albicans growth with fluconazole; C. albicans CaCi-2 (fluconazole-resistant clinical isolate) + fluconazole, Alamar Blue growth, 48 h; growth inhibition, % (test concentration not listed); hit rate 0.57% among 300,000; AID 1979;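 active = most replicates above 75%; inconclusive = exactly half above 75%; inactive = most below 75%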;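 note: all wells also contain fluconazole at 8 µg/ml as a sub-toxic cotreatment; 0% = median of DMSO wells and 100% = median of geldanamycin control wells; wells of about 8 µL received 7.5 nL stock; the first replicate is given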
ALR H2O2 inh – human ALR oxidase inhibition via reduced H2O2; inhibition, % (test concentration not listed); purified ALR, DTT oxidation, H2O2 HRP-luminol luminescence; hit rate 3.8% among 290,000; AID 485317; P55789;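 active = mean and each replicate at 75% or more; inconclusive = only one of the two met; inactive = neither met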;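 note: stock transfer was 7.5 nL into about 7.5 µL; 0% = neutral wells and 100% = wells with inactivated enzyme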
Target sequence (P55789 whole entry, looked up): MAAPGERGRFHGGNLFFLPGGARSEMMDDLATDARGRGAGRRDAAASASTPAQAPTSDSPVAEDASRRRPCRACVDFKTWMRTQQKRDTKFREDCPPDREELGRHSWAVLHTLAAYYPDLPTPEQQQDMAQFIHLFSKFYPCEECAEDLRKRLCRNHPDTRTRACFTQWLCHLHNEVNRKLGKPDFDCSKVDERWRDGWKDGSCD
Bfl-1 A1 inh – inhibitors of the anti-apoptotic protein A1, read as caspase activation | MEF A1-2A-BIM cells, Caspase-Glo 3/7 luminescence, 3 h; percent of clofoctol response, vehicle zero | caspase activation, % (concentration not given with the values) | hit rate 0.066% among 330,000;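 active = over half of replicate activation scores above 10%, or exactly half above 10 with the replicate mean above 10; inconclusive = replicate mean below 10 yet half the replicates above 10; inactive = over half of replicates below 10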;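 note: wells of about 30 µL received 50 nL stock; many hits fall short of the cut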
LANA-H2A inh – blocks KSHV LANA binding to histone H2A/H2B | inhibition, % (concentration not given with the values) | hit rate 0.6% among 320,000 | Q9QR71 | cell-free LANA-H2A/H2B peptide, fluorescence polarization; in the data active = inhibition mostly above about 10%, no sharp cut-off; inactive = mostly below about 6.7%;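 note: stock transfer was 7.5 nL into about 10 µL; 0% = median of vehicle wells and 100% = median of positive control wells; one replicate is shown; the record names a cut of 25% in any replicate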
Beta cell apopt – blocks beta cell apoptosis; INS-1E cytokine-induced death, ATP luminescence, 48 h; percent of positive-control rescue, neutral wells zero; protection from apoptosis, % (no concentration beside the values); hit rate 0.8% among 300,000; AID 435005;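 active = all replicates at 75% or more, or half of them and the mean; inconclusive = half reach 75% but not the mean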;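 note: 0% = cytokine-treated negative control wells and 100% = positive control rescue; higher means more ATP so stronger rescue from cytokine killing; wells of about 40 µL received 100 nL stock; the first replicate is given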
T cruzi inh – blocks replication of Trypanosoma cruzi. T. cruzi beta-gal in NIH3T3, luminescence, 90 h. hit rate 1.4% among 300,000. inhibition, % (test concentration not listed). AID 1885;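 active = mean inhibition across valid replicates above about 55%, limit read from the data; inconclusive = mean below that limit but half or more replicates reach it; inactive = mean below it, under half of replicates reach it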;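 note: signal also drops with host cell toxicity which is not excluded here; 0% = plate median of DMSO wells and 100% = zero luminescence signal; higher percent means less beta-gal luminescence so fewer parasites; stock transfer was 50 nL into about 50 µL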
Beta2AR agonist – human beta-2 adrenergic receptor agonism by FAP; Am2.2-beta2AR cells, FAP receptor internalization, flow cytometry; reference of the scale not given here; AID 504454; response, % (no concentration beside the values); hit rate 0.43% among 340,000; P07550;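 active = response above a set limit, near 3 SD of response in nonfluorescent compounds, cut at about 42% in these data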;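 note: stock transfer was 100 nL into about 11 µL; a reference agonist was the positive control; negative values mostly stem from fluorescent compounds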
Target sequence (P07550 whole entry, looked up): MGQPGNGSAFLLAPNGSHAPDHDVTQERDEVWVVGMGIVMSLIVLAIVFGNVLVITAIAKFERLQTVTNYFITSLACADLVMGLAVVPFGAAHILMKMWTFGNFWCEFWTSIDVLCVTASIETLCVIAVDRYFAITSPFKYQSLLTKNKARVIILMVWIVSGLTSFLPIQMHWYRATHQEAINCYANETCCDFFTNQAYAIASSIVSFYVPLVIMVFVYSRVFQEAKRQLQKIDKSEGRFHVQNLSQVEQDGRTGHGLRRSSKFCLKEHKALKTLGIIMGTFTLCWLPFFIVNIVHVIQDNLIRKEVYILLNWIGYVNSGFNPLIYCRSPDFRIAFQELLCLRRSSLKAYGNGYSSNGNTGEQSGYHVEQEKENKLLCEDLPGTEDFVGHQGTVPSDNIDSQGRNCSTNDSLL
rRNA inh HTS OD600 – second read-out of rRNA inh HTS, no call of its own (marks repeat the call); OD600 change, %; measured here: OD600 growth;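 optical density of the mix in the first replicate; 0 = DMSO median and -100 = no signal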
rRNA inh HTS RFP – also measured in rRNA inh HTS; calls as there; RFP signal change, %; measured here: RFP humanized mutant strains;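 first replicate; 0 = DMSO median and -100 = no signal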
* hit, by the source's call; ? = inconclusive; . = no result given; & = joins results of further samples.

1: Cc1ccc([N+](=O)[O-])cc1NC(=O)C(C)NS(=O)(=O)c1ccc(F)cc1 (configuration not stated)
2: CCC(C)NC(=O)COC(=O)c1cc([N+](=O)[O-])ccc1Sc1nc(C)cs1 (configuration not stated)
3: CC(C)NC(=O)c1ccccc1-c1ccccc1
4: Cc1n[nH]c(C)c1CCC(=O)N/N=C/C=C/c1ccccc1
5: C/C(=N\Nc1ccc(C(F)(F)F)cn1)c1ccncc1
6: CC(C)CNC(=O)c1cccc(C(=O)NCC(C)C)c1
7: COc1ccc(-n2c(=O)[nH]c3cc(C(=O)NCCc4ccccc4)ccc3c2=O)cc1OC
8: CC(NC(=O)CNC(=O)c1ccccc1F)c1ccc(-n2ccnc2)cc1 (configuration not stated)
9: O=C(N/N=C/c1cc([N+](=O)[O-])cc([N+](=O)[O-])c1O)C(O)(c1ccccc1)c1ccccc1
10: Cc1noc(C)c1S(=O)(=O)N1CCC(C(=O)NCCCN2CC(C)CC(C)C2)CC1 (configuration not stated)

screen / no.	1	2	3	4	5	6	7	8	9	10
rRNA inh HTS	-3	.	6	2	-9	.	-7	9	-4	20
rRNA inh HTS OD600	-4	.	10	1	-12	.	0	9	-3	14
rRNA inh HTS RFP	-7.4	.	-4.7	-1.2	-1.2	.	7.1	0.7	0.8	1.5
Calb FLC	2	-2	25	38	5	20	.	.	.	-6
ALR H2O2 inh	-1	-2	14	0	-7	-6	-16	-1	6	-9
Bfl-1 A1 inh	0.8	0.2	0.5	1.9	-0.2	-0.5	0.4	-0.6	-0.9	-0.2
LANA-H2A inh	-0.6	2.2	-1.3	3.9	-1.0	-3.7	-3.0	-2.2	11	-3.9
Beta cell apopt	.	-2	-3	1	1	-5	0	1	-2	-2
T cruzi inh	15	-1	-11	0	-1	-8	-14	.	.	1
Beta2AR agonist	4	0	12	2	4	8	-1	-10	-3	-3

11: Nc1c(C(=O)N2CCOCC2)sc2nc3c(cc12)CCC3
12: C[C@@H]1CN([C@@H](C)CO)C(=O)c2cc(NS(=O)(=O)c3cccs3)ccc2O[C@H]1CN(C)Cc1ccc(C(F)(F)F)cc1
13: O=C(CSc1ncn[nH]1)c1cccc([N+](=O)[O-])c1
14: Cc1ccc(CNC(=O)c2cc(C3CC3)nc3c2cnn3C(C)C)cc1
15: CS(=O)(=O)N(Cc1ccc(Cl)cc1)c1ccc(C(=O)Nc2cccnc2)cc1
16: Cc1cccc(NC(=O)Cn2nnc(C(=O)NCc3ccco3)c2N)c1
17: Cc1ccccc1-c1noc(CNC(=O)COc2ccccc2)n1
18: COc1cc2nc3occc3c(OC)c2cc1OC
19: COc1ccc(Cl)cc1C(=O)NCC(C)C
20: C#CCSc1nnc(CSc2nc3ccccc3s2)n1-c1ccccc1

screen / no.	11	12	13	14	15	16	17	18	19	20
rRNA inh HTS	4	1&-11	5	6	.	7	-14	13	.	.
rRNA inh HTS OD600	7	-19&-7	8	0	.	-5	-6	11	.	.
rRNA inh HTS RFP	-1.8	-2.1&11	-2.7	0.7	.	-0.8	7.8	-3.6	.	.
Calb FLC	15	.	?	.	-20	2	3	2	-4	-1
ALR H2O2 inh	6	1	.	-3	-3	-3	-5	1	-1	-4
Bfl-1 A1 inh	-7.1	0.1	-0.7	0.6	0.6	-0.5	2.7	-0.1	2.2	1.3
LANA-H2A inh	-2.0	-1.7	-3.1	8.6	2.8	1.4	-2.0	0.9	-3.5	3.1
Beta cell apopt	4	19	-4	7	.	-2	1	-5	3	1
T cruzi inh	7	.	-9	.	-5	-8	10	-9	-1	13
Beta2AR agonist	0	5	2	16	-6	-2	-2	2	-8	-18

21: CC1(C)Cc2c(sc3nc4n(-c5ccccc5)cnn4c(=O)c23)CO1
22: COc1cc2c(cc1OC)C(=O)N1[C@H]3c4cc(C)ccc4OC[C@@H]3[C@H](c3ccccc3)[C@]1(C)C(=O)N2
23: Cc1ccnc(NC(=O)c2cc(F)c(F)cc2Cl)n1
24: CCCCCc1cc(=O)oc2c(C(CCN3CCCCC3)c3ccc4c(c3)OCO4)c(OC)cc(OC)c12 (configuration not stated)
25: CCC1Oc2ccccc2N(CC(=O)Nc2ccc(OC)cc2OC)C1=O (configuration not stated)
26: COc1ccc2c(c1)CC[C@@H]1[C@@H]2CC[C@]2(C)[C@@H](C(C)=O)C[C@@H]12
27: NNC(=S)NC1CCS(=O)(=O)C1 (configuration not stated)
28: O=C(CSc1ncnc2nc[nH]c12)c1ccc2ccccc2c1
29: CCn1nc(C(=O)OCC(=O)Nc2nc(-c3ccc(OC)cc3)cs2)c2ccccc2c1=O
30: COc1ccccc1CCNC(=O)CSc1nnc2ccc(-c3ccncc3)nn12

screen / no.	21	22	23	24	25	26	27	28	29	30
rRNA inh HTS	2	12	8	-56	.	-7	16	.	1	9
rRNA inh HTS OD600	8	3	10	-79	.	2	7	.	12	5
rRNA inh HTS RFP	0.4	6.2	1.1	-22	.	-5.1	-1.6	.	1.9	4.4
Calb FLC	-3	.	6	32	3	-30	-1	-10	-30	0
ALR H2O2 inh	-11	0	3	-24	-5	2	-1	35	-15	-2
Bfl-1 A1 inh	-0.4	0.4	0.8	-0.3	0.1	0.3	-0.6	0.3	0.7	0.3
LANA-H2A inh	-0.3	-2.5	-1.2	-0.6	-3.0	1.8	-0.1	-1.1	1.1	2.4
Beta cell apopt	-2	-1	-8	98*	-6	3	4	-1	2	-1
T cruzi inh	1	.	-5	45	-3	7	-4	-4	-4	-12
Beta2AR agonist	1	6	4	20	-7	3	6	-11	0	-3

Record cards, as listed above. Values in the order: rRNA inh HTS	rRNA inh HTS OD600	rRNA inh HTS RFP	Calb FLC	ALR H2O2 inh	Bfl-1 A1 inh	LANA-H2A inh	Beta cell apopt	T cruzi inh	Beta2AR agonist
Record of O=C(CSc1ncnc2nc[nH]c12)c1ccc2ccccc2c1 → .	.	.	-10	35	0.3	-1.1	-1	-4	-11
Record of COc1ccc2c(c1)CC[C@@H]1[C@@H]2CC[C@]2(C)[C@@H](C(C)=O)C[C@@H]12 → -7	2	-5.1	-30	2	0.3	1.8	3	7	3
Record of CCC1Oc2ccccc2N(CC(=O)Nc2ccc(OC)cc2OC)C1=O (configuration not stated) → .	.	.	3	-5	0.1	-3.0	-6	-3	-7
Record of COc1ccccc1CCNC(=O)CSc1nnc2ccc(-c3ccncc3)nn12 → 9	5	4.4	0	-2	0.3	2.4	-1	-12	-3

More compounds follow:
31: Cc1ccc(S(=O)(=O)N2CCN(c3ccccc3)CC2)cc1C(=O)NC1CCCCC1
32: COc1ccc(-c2csc(NC(=O)c3ccc(S(C)(=O)=O)cc3)n2)cc1
33: COc1ccc(-c2noc(CN(Cc3nccn3C)C(C)C)n2)cc1
34: CCCC(C)NC(=O)CSc1nc(-c2ccccc2)cn1N (configuration not stated)
35: O=C(NC1CC1)c1ccc2c3c(cccc13)CC2
36: CCCCNC(=O)CS(=O)Cc1nc(-c2cccc(C)c2)oc1C (configuration not stated)
37: O=C1N[C@@H](Cc2ccccc2)C(=O)N2[C@H]1C[C@]1(Br)c3ccccc3N(S(=O)(=O)c3ccccc3)[C@H]21
38: Cc1ccc(S(=O)(=O)Nc2cccc(C(=O)NCCCN3CCOCC3)c2)cc1F
39: COc1cc(C)c(CN2CCN(c3ncccn3)CC2)cc1C
40: N#CCCN(C(=O)COC(=O)c1ccc2c(c1)NC(=O)CS2)c1ccc2c(c1)OCCO2

screen / no.	31	32	33	34	35	36	37	38	39	40
rRNA inh HTS	6	-36	2	-5	.	-8	-6	8	3	-4
rRNA inh HTS OD600	11	-60	-2	-5	.	-7	2	5	0	1
rRNA inh HTS RFP	-2.9	34	-0.3	-2.5	.	-6.0	16	-1.8	0.2	-1.0
Calb FLC	-25	-1	-2	-9	9	-7	4	-4	-2	0
ALR H2O2 inh	-13	-1	3	-3	-4	99*	-12	-5	-2	-4
Bfl-1 A1 inh	0.2	0.0	-0.1	0.0	0.6	0.3	-0.1	0.4	-0.7	0.7
LANA-H2A inh	-11	4.4	0.9	-1.8	-1.8	2.7	-2.0	1.8	2.1	-7.5
Beta cell apopt	7	3	-1	-9	0	1	-8	2	-5	-3
T cruzi inh	-9	26	7	1	2	-5	-13	-5	8	1
Beta2AR agonist	-14	5	-10	-8	-12	4	1	1	6	13

41: Cn1ncc(Br)c1C(=O)NC1C2CC3CC(C2)CC1C3 (configuration not stated)
42: Cc1cccc(N2CCN(C(=O)c3ccc(S(=O)(=O)N(C)c4ccccc4)cc3)CC2)c1C
43: COc1ccc(OC)c(NC(=O)CSc2nnc(N)s2)c1
44: CN(C)CCCCOc1ccccc1F
45: Cc1cccc(CSC2=NN3CCCC(=O)N=C3S2)c1
46: COc1ccccc1NC(=O)[C@H](COCc1ccccc1)NC(=O)OC(C)(C)C
47: C=CCN=c1scc(-c2ccc(F)cc2)n1/N=C/c1ccccn1
48: Cc1cc(C(=O)c2ccc(Cl)cc2)c(NC(=O)CCl)s1
49: O=C(/C=C/c1c(F)cccc1Cl)Nc1cccnc1
50: C=C1/C=C(\C)[C@](C)(O)C[C@H](O)CC(=O)[C@H](O)[C@@H](O)[C@H](C)C[C@H](C)OC(=O)/C(C)=C/CC/C=C/[C@@H]2O[C@H]2C[C@H](C)C1

screen / no.	41	42	43	44	45	46	47	48	49	50
rRNA inh HTS	-30*	.	.	27	-8	.	-14	.	-13	.
rRNA inh HTS OD600	-17*	.	.	13	-26	.	-9	.	-14	.
rRNA inh HTS RFP	-1.6*	.	.	2.9	-1.1	.	-1.9	.	0.5	.
Calb FLC	-8	.	1	-3	-4	2	18	13	22	.
ALR H2O2 inh	-13	-7	-17	1	6	-21	-15	.	-24	-1
Bfl-1 A1 inh	0.4	0.5	0.3	-0.5	-1.0	0.7	0.3	1.9	-8.1	15*
LANA-H2A inh	-6.3	5.2	4.2	4.5	-2.5	1.7	6.2	4.6	1.7	3.7
Beta cell apopt	-4	-4	1	2	-3	-1	20	22	.	92*
T cruzi inh	1	.	-4	20	-7	16	-24	15	-13	.
Beta2AR agonist	-3	14	3	6	-8	2	-21	7	2	.

51: CC1(c2nnc(Cc3ccccc3)o2)CC(c2ccccc2Br)=NO1 (configuration not stated)
52: CCOC(=O)N1CCN(Cc2cn[nH]c2-c2ccc(-c3ccccc3)cc2)CC1
53: CCOC(=O)C1=C(O)C(=O)N(CCCn2ccnc2)C1c1ccc(OC)cc1 (configuration not stated)
54: CCCCn1c(N)c(N(CC(C)C)C(=O)C(C)SCc2nc3sc(C)c(C)c3c(=O)[nH]2)c(=O)[nH]c1=O (configuration not stated)

screen / no.	51	52	53	54
rRNA inh HTS	-18	3	.	10
rRNA inh HTS OD600	-27	2	.	8
rRNA inh HTS RFP	-7.7	-1.0	.	2.3
Calb FLC	3	11	-8	.
ALR H2O2 inh	2	-8	-2	-24
Bfl-1 A1 inh	-0.3	0.1	-0.4	-0.5
LANA-H2A inh	2.0	-1.8	7.1	1.3
Beta cell apopt	-6	3	0	-4
T cruzi inh	-4	-14	-1	8
Beta2AR agonist	-2	-1	.	8

Assay outcomes (PubChem BioAssay)

A portion of the library (hit frequency here may not be typical).
